# SARS PLpro yeast: SARS-CoV PLP inhibition in yeast; S. cerevisiae expressing SARS-CoV PLpro, growth rescue; control for the full effect not named in the record; Potency, µM (titrated, usually from 32.9 µM), without a hit: top-dose activity, positive = growth rescue; actives 0.19% (n = 330,000); note: 0% is about no effect; nearly all actives have a fitted effect of over 55% in size; growth read by luminescence after 48 h
# Marburg entry inh: Marburg virus entry inhibition | Marburg virus pseudotyped entry inhibition, cell reporter; control for the full effect not named in the record; about a third of the inactives were read at about 46 µM | Potency, µM (highest dose often 37.8 µM), for inactives: at the top dose activity change, negative = inhibition, actives largely listed as inhibitors | actives 1.8% (n = 300,000); active = well fitted inhibition curve with a large enough effect; inconclusive = small, poorly fitted or top-dose-only effect, or effect the other way; inactive = flat fitted curve, though single readings scatter; tested in HEK293 cells; about a fifth of its hits are not listed in these tables; note: % is set by controls: 0 for no effect and ±100 for the full control effect; luciferase read-out
# 2A StopGo: FMDV 2A StopGo reporter, luciferase signal. actives 1.2% (n = 410,000). AID 1159524. Potency, µM (highest dose often 57.9 µM), inactives show at the highest dose signal change, negative = less light. human cells with a luciferase reporter of 2A StopGo recoding; control for the full effect not named in the record; active = well fitted falling curve with a large enough effect; inconclusive = small, poorly fitted or top-dose-only effect; inactive = no such curve, though single readings can be large or run the other way; tested in HEK293T cells; note: % is set by controls: 0 for no effect and ±100 for the full control effect; nearly all actives have a fitted effect of over 45% in size; luciferase light after 4 h
# LASV entry inh: inhibitors of Lassa virus binding or cell entry; Potency, µM (titrated, usually from 37.9 µM), for the others: top-dose activity change, negative = inhibition, actives largely listed as inhibitors; actives 1.2% (n = 300,000); Lassa virus pseudotype entry inhibition, cell reporter; control for the full effect not named in the record; active means well fitted inhibition curve with a large enough effect; inconclusive means small, poorly fitted or top-dose-only effect, or effect the other way; inactive means flat fitted curve, though single readings scatter; tested in HEK293 cells; note: % is set by controls: 0 for no effect and ±100 for the full control effect; nearly all actives have a fitted effect of over 50% in size; luciferase read-out
# RE007 growth inh: less growth of the S. pombe RE007 Vpr strain. S. pombe RE007 Vpr strain, BacTiter-Glo ATP luminescence, 24 h; control for the full effect not named in the record. Potency, µM (top dose mostly 92.2 µM), inactives show top-dose activity change, negative = less growth. actives 0.21% (n = 360,000). AID 651644; active = well fitted falling curve with a large enough effect; inconclusive = small, poorly fitted or top-dose-only effect; inactive = no such curve, though single readings can be large or run the other way;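 note: % is set by controls: 0 for no effect and ±100 for the full control effect; nearly all actives have a fitted effect of over 50% in size; the assay follows cell death caused by Vpr and the record does not say whether a fall means rescue or toxicity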
#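 Fission yeast strain RE007, carrying one chromosomally integrated HIV-1 vpr copy, was seeded at OD 0.01 in PMG+AL medium with 23 nL pinned compound. After 24 h at 30 °C and 99% humidity, viability was read by BacTiter-Glo luminescence.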
# NS1 inh: influenza NS1 inhibition. S. cerevisiae slowed by influenza A NS1, growth recovery by OD600. Potency, µM (series often up to 46.1 µM), for inactives: at the highest dose activity, positive = more growth. actives 0.4% (n = 270,000). AID 2326; note: actives are rising curves; nearly all actives have a fitted effect of over 50% in size
#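 Compounds were scored for reversing the slow growth caused by influenza A NS1 in S. cerevisiae, measured by optical density at 600 nm. Assay medium contained 2% galactose at pH 6.0; NS1-free yeast of the same strain were the positive control.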
# Cruzain noTriton: blocks cruzain activity in detergent-free assay | P25779 | purified cruzain, Z-FR-AMC fluorescence, no detergent | Potency, µM, without a hit: max response, negative = inhibition, usual class: inhibitors | actives 2.3% (n = 200,000) | AID 1476; active = well fitted curve in the direction sought with a large enough effect; inconclusive = small, poorly fitted or top-dose-only effect, or another doubt; inactive = no such curve, though single readings can be large; an effect the other way counts as inactive or inconclusive;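 note: plate controls were enzyme without inhibitor for no effect and buffer without enzyme for full effect; nearly all actives have a fitted effect of over 40% in size; top concentration of the series not given in the record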
# Target sequence (P25779 123-467 limits assumed): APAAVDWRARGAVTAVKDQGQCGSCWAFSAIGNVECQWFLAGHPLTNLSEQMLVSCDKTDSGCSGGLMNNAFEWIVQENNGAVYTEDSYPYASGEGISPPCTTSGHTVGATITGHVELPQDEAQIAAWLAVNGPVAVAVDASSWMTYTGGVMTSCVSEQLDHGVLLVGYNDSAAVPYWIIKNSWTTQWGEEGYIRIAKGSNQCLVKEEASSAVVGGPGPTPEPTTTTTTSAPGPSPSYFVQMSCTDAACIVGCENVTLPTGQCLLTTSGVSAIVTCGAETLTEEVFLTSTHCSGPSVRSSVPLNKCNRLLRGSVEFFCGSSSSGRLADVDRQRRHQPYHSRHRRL
#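 Detergent-free condition (0.00005% Triton X-100) in acetate buffer pH 5.5 with DTT. 1.5 nM enzyme and compound were pre-mixed 15 min, then 2 uM Z-FR-AMC substrate added; reaction progress from fluorescence change between first and third reads (60 s).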
# Cruzain Triton: blocks cruzain activity in presence of Triton detergent. P25779. Potency, µM, inactives show max response, negative = inhibition, hits mostly inhibitors. actives 0.43% (n = 200,000). purified cruzain, Z-FR-AMC fluorescence, 0.01% Triton; active = well fitted curve in the direction sought with a large enough effect; inconclusive = small, poorly fitted or top-dose-only effect, or another doubt; inactive = no such curve, though single readings can be large; an effect the other way counts as inactive or inconclusive;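 note: plate controls were neutral wells for no effect and buffer without enzyme for full effect; nearly all actives have a fitted effect of over 40% in size; top concentration of the series not given in the record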
#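 Cruzain (1.5 nM) preincubated 15 min at RT with compound in 100 mM sodium acetate pH 5.5, 5 mM DTT, 0.01% Triton X-100. Reaction started with 2 uM Z-FR-AMC; AMC fluorescence (ex 360/em 450 nm) change over 60 s gave rate.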
# * marks the source's active call; other numbers are inactive results; u = inconclusive; x = not tested or not shown; & = joins results of further samples; [ ] = another dose, or the depositor's remark. Unless noted, calls come from the whole dose curve; as a rule, active means well fitted rising curve with a large enough effect; inconclusive means small, poorly fitted or top-dose-only effect; inactive means no such curve, though single readings can be large or run the other way. Potency is the fitted concentration of half-maximal effect.
SMILES,SARS PLpro yeast,Marburg entry inh,2A StopGo,LASV entry inh,RE007 growth inh,NS1 inh,Cruzain noTriton,Cruzain Triton
CCN(CC)S(=O)(=O)c1ccc(-c2nnc(SCC(N)=O)n2CC)cc1,2%,-1%[46.1 µM],-10%,u,2%,-4%,x,x
O=C(CSc1ncccn1)N1CCN(S(=O)(=O)c2ccccc2)CC1,1%,2%[46.1 µM],-5%,12%[46.1 µM],4%,1%,x,x
O=C(NC(=S)N1CCCCCC1)c1ccc(Cl)cc1Cl,-2%,-28%[46.1 µM],2%,-27%[46.1 µM],-28%,-5%,x,x
CCCOP(=O)(OCCC)C(Nc1cccc(C(F)(F)F)c1)c1ccc(C)cc1 (stereo unspecified),-24%,u,u,5%,0%,-7%,4%,-8.2%
O=C(Nc1nc2ccccc2s1)c1cccn(Cc2ccccc2)c1=O,x,x,-36%,16%[46.1 µM],x,x,-16%,-1.1%
Cc1ccc(-c2csc(NC(=S)NC(=O)/C=C/c3ccco3)n2)cc1,-4%,u,15%,u,13%,11%,u,1.3%
CCN1CCCC1CNCc1cccc(OC)c1OCc1ccccc1 (stereo unspecified),18%,-13%,-11%,6%,2%,15%,5%,3.0%
CC(C)(C)OC(=O)NCCCC[C@H](NC(=O)c1nc[nH]c1C(=O)NC(c1ccccc1)c1ccccc1)C(=O)OC(C)(C)C,1%,x,u,x,1%,u,x,x
O=C(COC(=O)c1ccc(Br)cc1)NCCC1=CCCCC1,-1%,-10%[46.1 µM],5%,0%,-10%,-2%,x,x
CN1CCC(N(C)S(=O)(=O)c2ccc(NC(=O)COc3ccc([N+](=O)[O-])cc3)cc2)CC1,1%,-27%,-12%,0%[46.1 µM],-24%,x,x,x
Cc1ccc(N/N=C/c2ccncc2)cc1,2%,x,33%[activator],x,7%,-57%,x,x
COc1cc(CNn2nnnc2N)cc(Br)c1OCC(=O)NC(C)(C)C,15%,-3%,0%,4%,8%,-14%,-2%,3.9%
CCN(C(=O)COC(=O)CN(C)S(=O)(=O)c1ccc(NC(C)=O)cc1)C1CCS(=O)(=O)C1 (stereo unspecified),25%,7%,-4%,1%,2%,1%,x,x
OCc1cccc(Nc2ncnc3sc4c(c23)CCCCC4)c1,-1%,u,-8%,-25%,3%,-25%,x,x
COc1cc([N+](=O)[O-])ccc1NC(=O)CSc1nnc(C)c(C)n1,1%,-17%[46.1 µM],-25%,6%[46.1 µM],-4%,-4%,x,x
CCC(=O)N1CCc2cc(S(=O)(=O)NCCC(=O)N3CCN(c4ccccc4)CC3)ccc21,5%,x,7%,x,10%,11%,x,x
CC1(C)SC(=S)N(NC(=O)Nc2ccccc2)C1N(O)C(=O)Nc1cccc2ccccc12 (stereo unspecified),4%,-28%,2%,u,-5%,22µM*,13%,-8.0%
COc1cc(/C=C2/NC(=O)N(Cc3ccccc3F)C2=O)cc(OC)c1O,2%,1%[46.1 µM],-8%,u,6%,x,x,x
O=S1(=O)N=C(N2CCN(c3ccc(F)cc3)CC2)c2ccccc21,8%,16%,24%,9%,-2%,1%,1%,3.6%
CN(CC(=O)OCC(=O)NCC(F)(F)F)S(=O)(=O)c1ccc(Cl)cc1,3%,1%[46.1 µM],-5%,0%,-4%,x,x,x
O=C(NNC(=O)c1ccc(S(=O)(=O)N2CCCC2)cc1)c1ccc(Br)cc1,-2%,-15%,1%,3%,-23%,x,x,x
CN(C)CCCNC(=O)c1cc2sc3ccccc3c2s1,0%,u,-2%,-23%,-4%,1%,x,x
Cc1ccccc1NS(=O)(=O)c1ccc(NC(=O)N2CCCCC2)cc1,0%,-5%,-6%,-7%,3%,19%,x,x
CCOC(=O)N1CCN(C(=O)c2ccc(Cn3c(=S)[nH]c4cc5c(cc4c3=O)OCO5)cc2)CC1,13%,u,-23%,u,3%,-91%,25%,-4.6%
NC(=O)c1ccc(N2CCCCC2)c(N2C(=O)C3C4C=CC(C4)C3C2=O)c1 (stereo unspecified),-2%,3%,-7%,2%,11%,9%,1%,1.2%
COc1ccc2c(c1)-c1nc(NC(=O)c3ccc(C)cc3)sc1CC2,x,u,-9%,0%[46.1 µM],x,x,u,-4.1%
CC1CCN(CCCNC(=O)c2cc3sccc3n2C)CC1,-8%,u,-4%,-15%,4%,1%,-8%,3.1%
CS(=O)(=O)N(CC(=O)N1CCCCCC1)c1ccccc1,3%,18%,0%,u,16%,4%,-7%,-0.5%
Cc1cccc(NCc2ccccc2O)c1,-9%,12%,12%,0%,16%,-2%,-1%,-0.1%
CN1CCN(CCCNCc2cn(CCC#N)c3ccccc23)CC1,0%,u,-18%,9%[46.1 µM],-5%,2%,x,x
COc1cc2c(cc1OC)CN(Cc1nc3ccsc3c(=O)[nH]1)CC2,4%,22%[46.1 µM],-1%,-4%,26%,u,-19%,-2.8%
CC[C@]12c3[nH]c4cc(CCC(=O)N(C)C)ccc4c3CCN1C(=O)[C@@H](CC(=O)NC(C)(C)C)C[C@@H]2C(=O)N1CCN(C(=O)c2ccco2)CC1,-16%,-1%,-5%,x,-18%,x,x,x
O=C(Nc1nc2ccccc2[nH]1)c1cccc(Br)c1,-6%,u,14%,11%[46.1 µM],-28%,-14%,x,x
CC(=O)Nc1c(C(=O)O)oc2ccc(Cl)cc12,5%,23%,-23%,0%,10%,5%,6%,9.2%
O=C(c1ccc(N2CCOCC2)c([N+](=O)[O-])c1)N1CCCCC1,9%,24%[46.1 µM],-8%,23%[46.1 µM],-1%,-1%,x,x
COc1ccc(C(C(C(=O)c2cccs2)N2CCOCC2)N2CCOCC2)cc1OC (stereo unspecified),1%,-2%,-4%,8%,-12%,7%,0%,-1.2%
COc1ccc2c(=O)cc(C(F)(F)C(F)(F)F)oc2c1,0%,7%,x,-2%,-2%,10%,-2%,3.6%
CCNS(=O)(=O)c1ccc(CCC(=O)O)cc1,1%,3%,-8%,u,-14%,x,x,x
CSc1ncccc1C(=O)Nc1nc2ccc(Oc3ccccc3)cc2s1,0%,-19%,45%[activator],6%,-4%,u,u,-6.3%
Cc1cnc(NC(=O)CN(C)S(=O)(=O)c2ccc(Cl)cc2)s1,-10%,u,5%,5%,7%,7.9µM*,u,2.6%
COc1ccc(C(C(=O)NC2CCCCC2)N(C(=O)CCl)c2ccc(Cl)cc2)cc1 (stereo unspecified),-10%,u,16µM*,u,-18%,-6%,u,2.4%
CCOC(=O)c1cnc(-c2ccccc2)nc1Oc1cccc(Cl)c1,3%,0%,-24%,-15%,-8%,0%,-1%,5.0%
O=C(COC(=O)c1ccc(S(=O)(=O)N2CCOCC2)cc1)NC1CCCCCC1,3%,16%,x,24%,-2%,7%,u,3.9%
CCOc1ccc(/C=N/N2CCN(Cc3ccccc3)CC2)cc1,-7%,-3%,-20%,-8%,1%,-18%,x,x
Cc1cc(=O)oc2cc(OCC(=O)OCC(=O)Nc3ccccc3Br)ccc12,0%,5%[46.1 µM],-15%,u,-1%,-2%,x,x
CC(C)c1onc(C(=O)NCCc2ccccc2)c1[N+](=O)[O-],-1%,u,25%,18%[46.1 µM],-15%,x,x,x
CC(C)c1ccc(NC(=O)CN2C(=O)C3(SCC(=O)N3c3ccc(F)cc3)c3ccccc32)cc1 (stereo unspecified),x,x,-10%,-26%[46.1 µM],x,x,u,-8.3%
Cc1ccc(Nc2cc(=O)[nH]c(=O)[nH]2)cc1C,2%,-15%&-15%,-10%&0%,4%,-4%,x,4%,-1.3%
O=C(CSc1ccccn1)N1CCN(C(=O)CSc2ccccn2)CC1,11%,-3%,3%,-9%,13%,-7%,0%,8.3%
COC(=O)CNC(=O)Cc1c(F)cccc1Cl,0%,1%,-18%,1%,15%,8%,0%,3.6%
CN(C)c1ccc(P(=O)(Nc2ccc([N+](=O)[O-])cc2)N2CCOCC2)c(NC(=O)c2cccs2)c1 (stereo unspecified),2%,u,23%,13%,2%,2%,26%,-7.0%
Cc1nnc(SCC(=O)NCCc2ccccc2)s1,0%,x,1%,x,1%,5%,x,x
COC(=O)c1nnn(-c2nc(N3CCOCC3)nc(N3CCOCC3)n2)c1C,-1%,6%,-18%,9%,5%,x,x,x
O=C(c1cccs1)N1CCN=C1SCc1cccnc1,-3%,-9%,14%,0%,-1%,10%,0%,1.3%
CCCCN(C)CCNC(=O)c1cc2c(-c3cccc(OC)c3)nn(C)c2s1,0%,u,0%,u,-6%,1%,x,x
COc1ccc(-c2csc3nc(-c4ccccc4OC)oc(=O)c23)cc1,-1%,u,u,-4%[46.1 µM],9%,6%,x,x
COc1ccccc1N1N=C(c2ccc([N+](=O)[O-])cc2)CC1c1ccccc1 (stereo unspecified),-7%,u,-14%,u,0%,21%,x,x
COc1ccc(NC(=O)COC(=O)c2ccc3ccccc3n2)cc1,-1%,25%,-17%,2%,-2%,x,x,x
Cc1noc(/C=C/NCc2cccnc2)c1S(=O)(=O)N(C)CC(=O)N1CCc2ccccc21,3%,x,-9%,x,23%,u,-1%,-4.5%
CCN1CCN(C(CNS(=O)(=O)c2ccc(F)cc2)c2cccnc2)CC1 (stereo unspecified),-5%,4%[46.1 µM],-13%,5%[46.1 µM],-6%,7%,x,x
# Next part:
SMILES,SARS PLpro yeast,Marburg entry inh,2A StopGo,LASV entry inh,RE007 growth inh,NS1 inh,Cruzain noTriton,Cruzain Triton
COC(=O)N/N=C\c1ccc(OC/C=C/c2ccccc2)cc1,10%,x,30%[activator],x,-11%,-18%,x,x
COc1ccc(/C=N/n2c(N)nc(-c3ccccc3)c2-c2ccccc2)cc1,6%,u,u,u,-7%,-9%,u,-11%
Cc1nn(-c2ccccc2)c(OC(=O)c2ccccc2)c1S(=O)(=O)c1ccccc1,x,u,13%,6%[46.1 µM],x,x,-4%,-1.1%
CCN(CC(=O)Nc1ccc(C#N)c(Cl)c1)CC(=O)NC1CCS(=O)(=O)C1 (stereo unspecified),0%,0%,-26%,1%,7%,x,x,x

# Source: PubChem BioAssay
